# Screens from PubChem.
# ALR H2O2 inh: human ALR oxidase inhibition via reduced H2O2 | P55789 | 3.8% of 290,000 active | inhibition, % (concentration not given with the values) | purified ALR, DTT oxidation, H2O2 HRP-luminol luminescence | AID 485317;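 active = mean and each replicate at 75% or more; inconclusive = only one of the two met; inactive = neither met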;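 note: stock transfer was 7.5 nL into about 7.5 µL; 0% = neutral wells and 100% = wells with inactivated enzyme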
# E coli growth: blocks Escherichia coli growth; OD600 absorbance (concentration not given with the values); OD600, 23 h; hits give low values; 0.21% of 330,000 active;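 active = OD600 absorbance below the run mean of sample wells minus 3.6 SD, in any replicate, cut at about 0.56 in these data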;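 note: stock transfer was 300 nL into about 60 µL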
# HNF4A DNA FP: change in binding of human HNF4 alpha to DNA; P41235; HNF4a-FITC DNA binding, fluorescence polarization, 1 h; activity change, % at 10 µM; 0.3% of 360,000 active; AID 1224865; in the data active = activity change above about 30%, passing the limit was not always enough;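 note: controls were the assay level and a saturating level of protein; the project sought stronger binding though the title names inhibitors; some compounds called inactive have numbers as strong as hits; positive values seem to mean higher polarization but the record does not say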
# Target sequence (P41235 whole entry, looked up): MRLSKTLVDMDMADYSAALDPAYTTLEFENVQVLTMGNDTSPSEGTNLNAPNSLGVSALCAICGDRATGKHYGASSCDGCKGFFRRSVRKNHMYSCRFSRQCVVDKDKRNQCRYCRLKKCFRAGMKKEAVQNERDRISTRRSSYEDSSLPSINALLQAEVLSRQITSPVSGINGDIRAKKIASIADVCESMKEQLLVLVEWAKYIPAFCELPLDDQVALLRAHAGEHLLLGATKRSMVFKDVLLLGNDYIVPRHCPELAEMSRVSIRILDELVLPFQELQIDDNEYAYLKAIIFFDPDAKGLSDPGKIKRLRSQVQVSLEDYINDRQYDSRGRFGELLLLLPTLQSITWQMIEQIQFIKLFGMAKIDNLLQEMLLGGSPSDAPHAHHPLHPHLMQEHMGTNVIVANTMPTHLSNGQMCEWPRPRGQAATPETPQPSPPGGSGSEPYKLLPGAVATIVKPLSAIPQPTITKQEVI
# AF4-AF9 inh: inhibitors of human MLL-AF4/AF9 interaction; AlphaScreen, biotin-AF4 peptide binding to FLAG-AF9; inhibition, % at 10 µM; 0.47% of 350,000 active; AID 651704;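 active = every replicate reaching a set inhibition limit, whatever the replicate mean, cut at about 25% in these data; inconclusive = mean inhibition reaches that limit but some replicates miss it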;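 note: 0% = plate neutral control median and 100% = total signal loss; the record names both 10 and 1 µM as test concentration; the first replicate is given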
# Target sequence (P42568 whole entry, looked up): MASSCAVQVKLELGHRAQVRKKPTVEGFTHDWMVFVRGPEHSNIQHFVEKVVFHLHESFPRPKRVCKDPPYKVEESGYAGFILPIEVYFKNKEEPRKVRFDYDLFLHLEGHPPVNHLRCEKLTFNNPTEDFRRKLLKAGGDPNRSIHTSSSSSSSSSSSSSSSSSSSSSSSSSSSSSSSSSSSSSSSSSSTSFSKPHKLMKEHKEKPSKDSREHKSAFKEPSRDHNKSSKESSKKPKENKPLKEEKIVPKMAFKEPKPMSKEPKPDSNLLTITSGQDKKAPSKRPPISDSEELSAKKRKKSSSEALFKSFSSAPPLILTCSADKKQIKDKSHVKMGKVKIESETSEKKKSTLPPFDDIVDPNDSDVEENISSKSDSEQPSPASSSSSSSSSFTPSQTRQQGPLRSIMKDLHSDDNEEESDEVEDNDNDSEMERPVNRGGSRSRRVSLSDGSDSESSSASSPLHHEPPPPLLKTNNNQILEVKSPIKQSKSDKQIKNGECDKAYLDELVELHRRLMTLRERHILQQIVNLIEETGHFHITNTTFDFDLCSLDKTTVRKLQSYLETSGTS
# FGF22 binding: FGF22 (human) thermal shift binding; Q9HCT0; recombinant FGF22 thermal shift, SYPRO orange fluorescence; percent of sucrose octasulfate shift, DMSO zero; calls only at 9.99 µM; 1.5% of 340,000 active;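 active = melting point raised past a set limit in the mean and every replicate; inconclusive = no clear call; three in four hits are not shown here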
# Ecoli rRNA inh: inhibits bacterial ribosomal RNA function over humanized ribosomes; E. coli WT GFP vs humanized-ribosome RFP mutants, fluorescence, 24 h; hits give low values; DMSO median 0, no signal -100; GFP signal change (wild-type ribosome), % (no concentration beside the values); 1.6% of 350,000 active;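 active = significant combined selectivity score with lowered wild-type GFP, culture density cut under 30%, mutant RFP and density less affected; inactive = any of these conditions unmet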; note: one replicate is shown; some compounds called inactive have numbers as strong as hits
# Vif TR-FRET: HIV-1 Vif–A3G interaction blockers – biochemical, TR-FRET, GST-Vif 1-94, biotin-A3G peptide, dose response retest, primary screen (AID 1117319); TR-FRET GST-Vif / biotin-A3G peptide binding; higher % means a stronger effect; test concentration not given here; strong numbers were not always called active; inhibition, %; hits with a dose series show IC50 in µM; 0.57% of 260,000 active;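 active = above the screen mean plus three standard deviations and confirmed in dose response; inconclusive = results disagree or hit not tested in dose response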;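 note: Vif residues 1-94 fused to GST binding biotinylated APOBEC3G peptide 110-148; 0% = full assay without inhibitor and 100% = GST in place of GST-Vif; retest series ran down from 100 µM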
# Ecoli rRNA inh OD600: recorded beside Ecoli rRNA inh, whose call it bears; OD600 change, %; measured here: OD600 growth;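 optical density of the mix in the first replicate; 0 = DMSO median and -100 = no signal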
# Ecoli rRNA inh RFP: second read-out of Ecoli rRNA inh, no call of its own (marks repeat the call); RFP signal change, %; measured here: RFP humanized mutant strains;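 first replicate; 0 = DMSO median and -100 = no signal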
# Active calls of the source: *; i = inactive; ? = inconclusive; . = no result given; & = joins results of further samples.
SMILES,ALR H2O2 inh,E coli growth,HNF4A DNA FP,AF4-AF9 inh,FGF22 binding,Ecoli rRNA inh,Ecoli rRNA inh OD600,Ecoli rRNA inh RFP,Vif TR-FRET
CC(C)(C)NC(=O)C1Cc2ccccc2CN1S(=O)(=O)c1ccc(F)cc1 (stereo not drawn),0,0.69,1.5,-1.5,i,3,-14,1.3,-12%
O=C1NCCCN1Cc1ccc(F)cc1Cl,.,0.66,0.7,.,.,.,.,.,0%
Cc1nn(-c2cc(N3CCCC3)ccc2[N+](=O)[O-])c(=O)c2ccccc12,6,0.73,-1.7,.,.,.,.,.,26%
O=[n+]1c2c(n([O-])c3cc(Br)ccc31)CCCC2,-8,0.63,-1.5,-2.0,i,8,8,-1.3,30%
Cc1cccc(C(=O)OCC(=O)Nc2ccc3c(c2)OCCO3)c1,-1,0.71,-3.1,-0.4,i,-4,-6,-1.1,.
COCCNC(=O)C[C@H]1C[C@@H]2c3cc(NC(=O)C4CCOCC4)ccc3O[C@@H]2[C@H](CO)O1,.,.,.,0.8,i,4,1,1.1,.
CC12CCC(=O)N1C(C(=O)N1CCN(c3ccc([N+](=O)[O-])cc3)CC1)CS2 (stereo not drawn),9,0.67,1.1,0.3,i,7,7,2.4,-1%
O=C(CCNC(=O)c1ccccc1)NCCCc1ccccc1,.,.,-2.6,-1.0,i,6,5,-1.5,.
COc1ccc(C(=O)NCc2nnc(SCC(=O)N3CCCCC3)o2)cc1OC,-2,0.73,-0.6,.,.,.,.,.,-4%
C[C@H](CO)N1C[C@H](C)[C@@H](CN(C)S(=O)(=O)c2cn(C)cn2)Oc2ccc(NC(=O)Nc3ccc(C(F)(F)F)cc3)cc2C1=O,.,.,.,0.6,i,-12,-20,11,.
O=C(Nc1cc(C(F)(F)F)ccc1N1CCOCC1)c1cn2ccccc2n1,-7,0.74,4.6,.,.,.,.,.,15%
OC[C@@H]1CN(Cc2ccccc2)C[C@H](n2cnc3c(N4CCOCC4)ncnc32)O1,.,.,2.9,-2.6,i,6,0,3.6,.
O=C(CN1CCOCC1)Nc1ccccc1Sc1ccc(Cl)cc1,3,0.72,-1.7,2.8,i,-57,-74,-16,-3%
O=C(c1ccccc1)N1CCCCC(Sc2nnc3ccccn23)C1=O (stereo not drawn),14,0.69,0.9,-1.0,i,-4,-1,-1.0,17%
COc1ccc(C(=O)NCC2CCN(C(=O)C(=O)c3cccs3)CC2)c(OC)c1,.,.,.,0.2,i,-1,-10,0.4,.
Cc1noc(C)c1S(=O)(=O)N(C)C[C@@H]1Oc2ccc(NS(=O)(=O)c3ccc(F)cc3)cc2CC(=O)N([C@H](C)CO)C[C@H]1C,.,.,.,2.6,i,1,3,-1.5,.
COc1ccc(N2CCN(c3ncnc4scc(-c5ccccc5)c34)CC2)cc1,18,0.7,3.1,?,i,-12,-15,-3.6,-3%
Cc1cc(/C=C(\C#N)C(=O)NCc2cccs2)c(C)[nH]1,6,0.66,-2.8,3.2,i,-8,-18,10,-7%
CC(=O)Oc1ccc(/C(C)=N\N2CCN(Cc3ccc(Cl)cc3)CC2)cc1,16,.,-5.2,7.4,i,7,4,-3.0,.
Cc1cccc(NC(=O)Nc2nnc(-c3ccccc3)o2)c1,-12,0.65,2.0,0.4,i,11,6,1.1,18%
O=C(c1ccc(S(=O)(=O)N2CCCC2)cc1)N1CCCC(C(F)(F)F)C1 (stereo not drawn),0,0.63,2.3,-3.2,i,-1,-2,0.4,9%
C/C(=N\N=C1\NC(=O)C(CC(=O)NCc2ccccc2)S1)C(C)C (stereo not drawn),0,.,5.7,-3.5,i,2,2,-0.7,4%
COc1ccc(NC(=O)C/C(C)=N/NC(=O)c2ccncc2)c([N+](=O)[O-])c1,13,.,-3.7,1.5,i,12,8,1.8,-4%
C[C@@H]1CN([C@H](C)CO)C(=O)CCCn2cc(nn2)CO[C@H]1CN(C)C(=O)Nc1ccc(C(F)(F)F)cc1,.,.,-4.6,-2.1&-0.1,i,-5&-13,5&-15,8.1&3.8,.
COc1cc(NC(=O)CN2c3ccccc3CC2C)cc(OC)c1OC (stereo not drawn),97*,0.76,-0.8,.,.,.,.,.,0%
CO[C@@H]1CN(C)C(=O)c2cc(NC(=O)C3CC3)ccc2OC[C@@H](C)N(Cc2cncnc2)C[C@@H]1C,.,.,.,-1.9,i,2,3,-4.0,.
CC(C)(C)NC(=O)C(c1ccc(Cl)cc1)N(Cc1ccco1)C(=O)CCl (stereo not drawn),.,.,-0.8,3.6,i,10,11,0.2,-6%
Cc1cc(S(=O)(=O)NCc2ccncc2)c(C)cc1Br,2,0.69,-2.5,-1.1,i,7,1,2.3,.
C[C@H]1CN([C@@H](C)CO)C(=O)c2cc(C#CCN(C)C)cnc2O[C@@H]1CN(C)C(=O)Cc1cccnc1,.,.,.,-2.0,i,6,15,-1.5,.
Cc1c(C)c2ccc(OC(C)C(=O)NCCc3c[nH]c4ccccc34)cc2oc1=O (stereo not drawn),-6,0.72,-0.7,1.0,i,-9,2,0.8,.
CC1(C)Cc2c(sc3nnn(CC(=O)Nc4ccccc4)c(=O)c23)CO1,-3,0.65,2.4,-0.4,i,15,12,3.6,.
Cc1sc2nc(SCC(=O)c3cccs3)n(Cc3ccco3)c(=O)c2c1C,2,0.74,-1.6,.,.,.,.,.,8%
Cc1cc(S(=O)(=O)N2CCOCC2)ccc1OCC(=O)NCCN1CCOCC1,10,0.66,-0.5,1.0,i,5,3,-0.2,.
CC(=O)N1CCN(c2nc(C)nc3sc4c(c23)CCC(C)C4)CC1 (stereo not drawn),.,0.74,-6.8,.,.,.,.,.,2%
COc1cc(NC(=O)CN2C(=O)C(=O)N(CC(C)C)C2=O)cc(OC)c1,.,0.69,-1.1,-6.1,i,-2,0,-0.1,-3%
CC1CCC2(CC1)NC(=S)N(C(C)(C)C)N2 (stereo not drawn),3,0.69,3.8,-1.3,i,13,16,-0.5,-5%
C=COCCNC(=O)Nc1ccc(Cl)cc1Cl,4,0.73,0.1,.,.,8,3,-2.4,3%
C[C@H](CO)N1C[C@H](C)[C@@H](CN(C)C(=O)Nc2ccc(F)cc2)OCCCC[C@H](C)Oc2ccc(NC(=O)Nc3cccc4ccccc34)cc2C1=O,.,.,.,-2.1,i,4,5,2.4,.
CCCc1c(C)nc(N2CCN(c3cccc(OC)c3)CC2)[nH]c1=O,15,0.71,-3.3,-0.9,i,5,7,-1.5,.
CCOC(=O)NN1C(=O)c2ccccc2NC1c1cccnc1 (stereo not drawn),-2,0.68,-2.3,-1.3,i,13,9,4.2,-1%

# One compound at a time, as listed above. Order of screens: ALR H2O2 inh, E coli growth, HNF4A DNA FP, AF4-AF9 inh, FGF22 binding, Ecoli rRNA inh, Ecoli rRNA inh OD600, Ecoli rRNA inh RFP, Vif TR-FRET
# Results for `Cc1cc(S(=O)(=O)NCc2ccncc2)c(C)cc1Br` : 2, 0.69, -2.5, -1.1, i, 7, 1, 2.3, .
# Results for `C=COCCNC(=O)Nc1ccc(Cl)cc1Cl` : 4, 0.73, 0.1, ., ., 8, 3, -2.4, 3%
# Results for `CC(C)(C)NC(=O)C(c1ccc(Cl)cc1)N(Cc1ccco1)C(=O)CCl` (stereo not drawn) : ., ., -0.8, 3.6, i, 10, 11, 0.2, -6%
# Results for `O=C(c1ccc(S(=O)(=O)N2CCCC2)cc1)N1CCCC(C(F)(F)F)C1` (stereo not drawn) : 0, 0.63, 2.3, -3.2, i, -1, -2, 0.4, 9%
# Results for `C[C@H](CO)N1C[C@H](C)[C@@H](CN(C)C(=O)Nc2ccc(F)cc2)OCCCC[C@H](C)Oc2ccc(NC(=O)Nc3cccc4ccccc34)cc2C1=O` : ., ., ., -2.1, i, 4, 5, 2.4, .

# (next part)
SMILES,ALR H2O2 inh,E coli growth,HNF4A DNA FP,AF4-AF9 inh,FGF22 binding,Ecoli rRNA inh,Ecoli rRNA inh OD600,Ecoli rRNA inh RFP,Vif TR-FRET
Cc1cc(Nc2ccccc2)nc(NCc2ccccc2)n1,21,0.6,-1.8,2.5,i,-55,-79,-29,3%
CCCN1C(=O)SC(CC(=O)Nc2ccccc2C)C1=O (stereo not drawn),3,0.71,-2.8,.,.,.,.,.,7%
CCN(C(=O)C1CCCN(c2nc(-c3ccc(OC)cc3)no2)C1)c1ccc(OC)cc1 (stereo not drawn),-5,0.71,-1.1,0.5,i,-10,-16,-1.3,-1%
COc1ccc(Oc2nccc(-c3ccccc3)c2C#N)cc1,-6,0.69,1.0,.,.,.,.,.,5%
O=C1CCN(S(=O)(=O)c2ccccc2)CCN1CCOCc1ccc(C(F)(F)F)cc1,0,0.68,1.6,-1.6,i,-6,-18,2.2,.
CC(C)(C)OC(=O)Nc1ncnc2c1ncn2C1OC(CO)C2OC(C)(C)OC21 (stereo not drawn),8,0.61,-2.8,-1.6,i,10,-8,-1.3,-4%
COc1ccc(C(=O)N=C2SC3CS(=O)(=O)CC3N2Cc2ccccc2)cc1OC (stereo not drawn),0,0.71,-3.5,2.1,i,10,11,2.5,-11%
N#C[C@@H]1[C@H](c2ccccc2-c2ccccc2F)[C@@H](CO)N1C(=O)C1CCOCC1,.,.,.,0.6,i,1,18,-4.9,.
CCOC(CNC(=O)CCc1c(C)nc2nc(C)nn2c1C)OCC,-1,0.67,5.5,.,.,.,.,.,-5%
COc1cccc(Nc2nc(N)nc(C(F)(F)F)n2)c1,7,0.62,6.1,.,.,.,.,.,1%
CN1C(=O)c2cc(NC(=O)c3ccc(F)c(F)c3)ccc2OC[C@H]2O[C@H](CC(=O)N[C@H]3CCN(Cc4ccccc4)C3)CC[C@@H]21,.,.,.,7.4,i,-1,4,0.0,.
O=C1NC(=O)C2(CCCCCCC2)N1,.,0.67,2.5,2.9,i,15,14,-0.1,-1%
Cc1cccc(CNC(=O)CC2C(=O)NCCN2C2CCCC2)c1 (stereo not drawn),-8,.,2.7,1.8,i,9,-1,-1.8,.
O=C1CCC(NC(=O)c2ccccc2)C(=O)N1 (stereo not drawn),0,0.66,.,-2.3,i,1,-3,1.5,-1%
NC(=S)N/N=C/c1ccc(C(F)(F)F)cc1,5,.,2.0,-4.2,i,4,8,0.6,.
C[C@H](CO)N1C[C@H](C)[C@H](CN(C)C)Oc2ccc(NC(=O)CCC(F)(F)F)cc2C1=O,.,.,.,-1.9,i,1,-3,-1.3,.
CCC(=O)N1Cc2cc(C(=O)NCC(F)(F)F)nc(-c3cccc(-c4cncnc4)c3)c2[C@@H]1CCO,.,.,-0.8,-14,i,3,3,4.4,.
Cc1ccc(N=Nc2cc(C)ccc2N)cc1,8,0.73,3.2,10,i,-53*,-39*,-13*,1%
C[C@H]1CN([C@@H](C)CO)S(=O)(=O)c2ccc(C3=CCCCC3)cc2O[C@H]1CN(C)S(=O)(=O)c1ccc(F)cc1,.,.,.,0.8,i,-1,8,-5.0,.
O=C(Nc1nc(-c2ccc(F)c(F)c2)cs1)c1cnccn1,2,0.68,-2.3,-8.2,i,21,7,0.6,-7%
CCCN1[C@@H]2Cn3c(ccc(C4=CCCC4)c3=O)[C@H]1[C@@H](C(=O)NCCOC)[C@@H]2CO,.,.,.,-16,i,0,0,-1.6,.
COc1ccc(S(=O)(=O)N(C)C[C@@H]2Oc3cc(C#CC4CC4)ccc3S(=O)(=O)N([C@@H](C)CO)C[C@@H]2C)cc1,.,.,.,2.9,i,-2,1,0.4,.
COc1ccc(N(C(=O)c2ccco2)S(=O)(=O)c2cc(OC)ccc2OC)cc1,0,0.73,3.2,.,.,.,.,.,6%

# The list is partial; count on the stated rates, not on these rows.
